Source: PubChem BioAssay
VDR inh: vitamin D3 receptor (human) inhibition. P11473. VDR-SRC2-3 peptide fluorescence polarization, 2 h. Potency, µM, for the others: max response, negative = inhibition, most hits filed as inhibitors. 400,000 compounds, 0.93% hits; active means well fitted inhibition curve with a large enough effect; inconclusive means small, poorly fitted or top-dose-only effect, or another doubt; inactive means no such curve, though single readings can be large or run the other way; further: series mostly up to about 120 µM
Target sequence (P11473 whole entry, looked up): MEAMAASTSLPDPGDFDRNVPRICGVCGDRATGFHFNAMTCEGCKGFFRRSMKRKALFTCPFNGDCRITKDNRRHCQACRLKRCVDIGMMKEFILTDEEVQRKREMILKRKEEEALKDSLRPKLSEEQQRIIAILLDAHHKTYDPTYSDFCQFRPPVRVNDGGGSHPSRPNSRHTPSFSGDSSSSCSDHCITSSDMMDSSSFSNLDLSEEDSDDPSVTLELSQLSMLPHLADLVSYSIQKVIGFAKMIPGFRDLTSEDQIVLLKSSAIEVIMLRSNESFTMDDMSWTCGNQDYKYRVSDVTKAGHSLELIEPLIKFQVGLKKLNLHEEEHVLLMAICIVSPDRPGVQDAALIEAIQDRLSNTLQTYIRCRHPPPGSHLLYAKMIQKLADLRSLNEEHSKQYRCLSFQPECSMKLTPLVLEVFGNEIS
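Reagent solutions, kept cold and dark, are dispensed first; compounds are then pinned in at 23 nl, plates briefly spun, and incubated 2 h at ambient temperature. Inhibition of VDR–SRC2-3 peptide binding is read by fluorescence polarization.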
An asterisk follows results filed as active; u = inconclusive; & = joins results of further samples; [ ] = dose if it differs, or a comment. On the % scale 0 is the no-effect control and ±100 the full control effect; potency means the concentration at half of the fitted maximal effect. Not all compounds are listed; count on the stated rates, not on these rows.

VDR inh	mol
-26.7%	Cc1cc(N2C(=O)C(O)=C(C(=O)c3cc4ccccc4o3)C2c2ccc(Cl)cc2)no1 (stereo not drawn)
5.2%	CN(C(=O)Nc1ccc(Cl)cc1Cl)[C@H]1c2cc(Br)ccc2OC[C@H]1CO
3.9%	Cn1c(CCC(=O)O)nc2cc(S(=O)(=O)N3CCCC3)ccc21
-8.2%	COc1ccc(OC)c(-n2c(=S)[nH]c3cc(C(=O)N4CCCCC4)ccc3c2=O)c1
-9.3%	CCC(=O)Nc1nnc(/C=C/c2ccc(OC)cc2)s1
-0.5%	COCCNC(=O)c1ccc(C(=O)C(=O)c2ccccc2)cc1
-2.5%	CSc1nc2c(c(=O)[nH]c(=O)n2C)n1CCCc1ccccc1
-1.8%	Cc1cn2c(=O)c(S(=O)(=O)NCc3ccccc3Cl)c(C)nc2s1
11.2µM*	CSc1nnc(NC(=O)c2nc(S(=O)(=O)Cc3ccc(C)cc3)ncc2Cl)s1
13.7%	CCOC(=O)N1CCC(NC(=O)CNS(=O)(=O)c2ccc(Br)s2)CC1

Other compounds:
VDR inh	mol
-7.1%	CCOc1ccc(NC(=O)C2CCCN(S(=O)(=O)c3c(C)n[nH]c3C)C2)cc1 (stereo not drawn)
5.7%	O=C(CSc1nc2ncccc2[nH]1)NCCc1ccccc1
-3.2%	Oc1ccc2ccccc2c1/C=N/c1nccs1
-14.2%	CC(=O)Nc1ccc(S(=O)(=O)Nc2cccn(Cc3ccc(C)cc3)c2=O)cc1
12.2%	CC(=O)N[C@@H](Cc1ccc(O)cc1)C(=O)O
30.3%[activator]	CC1CC(C)CN(C(=S)SCc2nc(N)nc(Nc3ccccc3)n2)C1 (stereo not drawn)
1.8%	O=C(Nc1ncc(Cc2ccccc2Cl)s1)C1CCCO1 (stereo not drawn)
7.5%	O=C(NCCCN1CCCC1=O)c1cc(-c2ccc3c(c2)OCO3)nc2ccccc12
u	COc1cc(/C=C(\C#N)C(=O)Nc2ccccc2C(=O)O)cc(Cl)c1OC
-8.0%	O=C1CSC2(N1)C1CC3CC(C1)CC2C3 (stereo not drawn)

Next part.
VDR inh	mol
0.1%	CCC(=O)Nc1ccccc1-c1nc2ccccc2n(CC(=O)c2ccc(Br)cc2)c1=O
11.9%	CCOc1ccc(C(=O)N(CC)CC(=O)Nc2ccc3c(c2)OCCO3)cc1OCC
-5.3%	CCC1CCCCN1C(=S)NC(=O)c1ccco1 (stereo not drawn)
14.4%	O=C(CN1CCNCC1)Nc1ccc(Oc2ccccc2)cc1
-4.6%	COc1ccccc1N1CCN(C(=O)CSc2ccccc2)CC1
0.7%	COc1ccc(/C(O)=C2/C(=O)C(=O)N(c3ccccn3)C2c2ccc(OC)c(OC)c2)cc1 (stereo not drawn)
2.4%	Cc1ccc(-c2ccc(=O)n(CCC(=O)NCCN3CCCCC3C)n2)cc1 (stereo not drawn)
-18.9%	C[C@H]1CCC[C@@]2(O[C@@H](CCO)C[C@@H](O)[C@@H]2O)O1
16.1%	CCN(CC)S(=O)(=O)c1ccc(O)c(C(=O)OCC(=O)N(C)Cc2ccccc2)c1
u	NC1=C(c2ccc(F)cc2)C(=O)CS1

(further entries)
VDR inh	mol
-19.0%	CN(C)C(=O)/C(=C/c1ccc(-c2cccc([N+](=O)[O-])c2)o1)NC(=O)c1ccccc1
-9.1%	COc1ccc(S(=O)(=O)N2CCCN(CC(=O)Nc3ccc4c(c3)OCO4)CC2)cc1
-7.8%	COc1ccc(S(=O)(=O)N2CCN(C3Cc4ccccc4C3)CC2)cc1
-8.8%	CCN(CC(=O)NCc1ccc(Cl)cc1)C(=O)CCc1ccccc1
-11.6%	COc1ccc(S(=O)(=O)N2CCN(Cc3cc(=O)n4ccccc4n3)CC2)cc1
0.3%&5.8%	CC1=CC(C)(C)NC(=S)N1c1ccccc1C
9.3%	c1ccc(C(CN2CCCCC2)Oc2ccccn2)cc1 (stereo not drawn)
-2.5%	Cc1ccc(S(=O)(=O)c2nnn3c2nc(N2CCCC(C)C2)c2cc(Cl)ccc23)cc1C (stereo not drawn)
-4.6%	CC1CCC2(CC1)NC(=O)N(NC(=O)CCl)C2=O (stereo not drawn)
-0.1%	C=CCNc1nc(C(=O)OCC(=O)Nc2c(Cl)cccc2C(F)(F)F)cs1

The listing continues.
VDR inh	mol
-2.2%	O=C(Nc1ccc(N2CCOCC2)cc1)C1CC(=O)N(c2ccc(Cl)cc2)C1 (stereo not drawn)
4.9%	CC(=O)c1ccc(OCC(O)CN2CCC(C)CC2)cc1 (stereo not drawn)
-2.7%	COc1ccc(Cl)cc1C(=O)Nc1cccnc1Cl
-16.9%	COc1ccccc1-n1c(N)cc(=O)nc1SCC(=O)Nc1cc(C)on1
-11.7%	O=C(/C=C\c1ccccc1[N+](=O)[O-])Nc1ccccc1
-16.5%	Cc1nc(NCCNC(=O)c2ccco2)c2c(C)c(C)sc2n1
1.7%	CCC(CC)C(=O)OCC(=O)Nc1cccc(S(=O)(=O)N(C)c2ccccc2)c1
-15.0%	Cc1cccc(NC(=S)NC2CC3CCCC(C2)N3Cc2cccs2)c1 (stereo not drawn)
-5.3%	COc1ccccc1NC(=O)CN(Cc1ccco1)C(=O)c1ccc(N2CCCC2=O)cc1
10.6%	COc1ccc(NS(=O)(=O)c2ccc(NS(=O)(=O)c3cccs3)cc2)c(OC)c1

Next part
VDR inh	mol
0.3%	CCNc1nc2c(c(=O)[nH]c(=O)n2C)n1Cc1ccc(F)cc1
-6.9%	Fc1ccc(COc2ccc(C(=S)N3CCCC3)cc2)cc1
1.6%	CCOC(=O)C1=C(C)NC(=O)NC1c1ccc(OC(=O)c2ccco2)cc1 (stereo not drawn)
-0.5%	O=C(Nc1cccc(F)c1)Nc1ccnn1C1CCN(C(=O)CCN2CCCO2)CC1
-3.0%	CCOC(=O)c1cccc(NC(=O)CSc2nnc(C3CCCCC3)n2C)c1
-2.0%	CC1CCCC(NC(=O)COC(=O)c2cccs2)C1C (stereo not drawn)
3.7%	Cc1ccc(NC2CCCN(C(=O)CCN3CCOCC3)C2)cc1C (stereo not drawn)
9.0%	CCc1ccc(N2CC(C(=O)OCC(=O)NC3CCS(=O)(=O)C3)CC2=O)cc1 (stereo not drawn)
1.9%	CCN(CC(=O)NCCc1ccc(S(N)(=O)=O)cc1)Cc1ccccc1
4.1%	CCc1nn2c(=O)cc(COC(=O)c3ccc4c(c3)OCO4)nc2s1

Continuation:
VDR inh	mol
-8.0%	COc1ccc(NC(=O)N2CCCC(C(=O)NCc3ccccc3F)C2)cc1 (stereo not drawn)
-15.2%	COc1ccc(CC(=S)N2CCOCC2)cc1
0.8%	CCCCN(C)CCCN1C(=O)C2C(C(=O)Nc3cccc(OC)c3)C3C=CC2(O3)C1C(=O)NC1CCCCC1C (stereo not drawn)
-2.5%	Cc1ccc(C)c(CN2C(=O)c3ccccc3S(=O)(=O)c3ccc(C(=O)Nc4ccccc4C(F)(F)F)cc32)c1
-0.7%	O=c1onc(-c2cccs2)n1Cc1ccccc1
-7.9%&-3.1%&1.2%	CCn1nc(C(=O)O)c(=O)c2cc3c(cc21)OCO3
-6.7%	Cc1ccc(NC(=O)CN(C)Cc2ccc(F)cc2)c([N+](=O)[O-])c1
11.0%	Nc1cc(C(=O)N/N=C/c2cccc([N+](=O)[O-])c2)n[nH]c1=O
4.5%	COc1ccc(CC(=O)OCC(=O)NCC2CCCO2)cc1OC (stereo not drawn)
-15.0%	CC(=O)NC1(C(F)(F)F)C(=O)Nc2c1c(=O)[nH]c(=O)n2-c1ccccc1 (stereo not drawn)

Going on with the list.
VDR inh	mol
17.4%	CCc1ccc2nc(NC(=O)Cn3cnc4ccccc4c3=O)sc2c1
u	O=C(Nc1ccccc1)O/N=C1/CCCc2occc21
-8.6%	CCN1CCN(C(=O)c2ccc3c(c2)N(Cc2c(F)cccc2Cl)C(=O)c2ccccc2S3)CC1
1.7%	Cc1cc(C)nc(-n2nc(C)c(Sc3ccc(F)cc3)c2N)n1
0.3%	Cc1cc(C(F)(F)F)nc(NCc2ccc(F)cc2)n1
12.9%	N/C(=N\OC(=O)c1ccccc1Br)c1cccc([N+](=O)[O-])c1
-8.3%	CC(=O)NCCn1c(SCc2ccccc2C)nc2ccccc2c1=O
-3.2%	O=C(COC(=O)CCc1ccccc1)NCc1ccccc1
-18.6%	O=S(=O)(c1cccc(F)c1)N1CCN(C(=S)NCC2CCCO2)CC1 (stereo not drawn)
0.7%	Cc1ccccc1CN1C(=O)[C@@H]2Cc3c([nH]c4ccccc34)C(C)(C)N2C1=O

Carrying on:
VDR inh	mol
0.0%	CCn1c(SCC(=O)c2[nH]c(C)c(C(C)=O)c2C)nnc1-c1cccs1
8.3%	CCOC(=O)N1CCN(C(=O)CSc2nnc(-c3ccccc3OC)o2)CC1
-4.8%	O=S(=O)(Nc1ccc2c(c1)nc1n2CCN(Cc2ccccc2)C1)c1ccccc1
0.4%	O=C(CCCC(=O)N(c1ccc(F)cc1)C(C(=O)NC1CCCC1)c1ccc(O)cc1)Nc1ccccn1 (stereo not drawn)
-9.7%	Cc1ccc(C(=O)N/C(=C/c2ccco2)C(=O)Nc2cccc(C(=O)O)c2)cc1
-0.8%	Cc1cccc(CSc2nnc3[nH]c(=O)cc(-c4ccccc4)n23)c1
u	O=[N+]([O-])c1c(NCCCO)cc(Sc2ccc(Cl)cc2)c2nonc12
-20.5%	CCOc1ccc2nc(NC(=O)CN3CCN(C)CC3)sc2c1
4.8%	CC(=O)N1CC2([N+](=O)[O-])CN(C(C)=O)CC([N+](=O)[O-])(C1)C2(C)C
1.2%	Cc1ccc(-n2c(O)c(C=NCc3ccccn3)c3ccccc3c2=O)cc1C

The list continues:
VDR inh	mol
11.3%	CCc1ccc(/C=C2\SC(=S)N(CCCC(=O)Nc3ccc(C(=O)O)cc3)C2=O)cc1
-5.5%	COc1cccc(CN2CCN(S(=O)(=O)c3ccc(NC(C)=O)cc3)CC2)c1OC
-23.1%	COCCOC(=O)C1=C(C)N(c2ccccc2)C(=O)NC1c1cccc([N+](=O)[O-])c1 (stereo not drawn)
-6.0%	Cc1ccc(S(=O)(=O)NCCC(=O)NCc2ccccc2)cc1
-6.0%	O=C(NCCO)c1ccc(-c2nnc(Nc3ccc(O)cc3)c3ccccc23)cc1
-7.0%	COc1ccc(C(=O)NCc2nnc(SCC(=O)N3CCC(C)CC3)o2)cc1
12.0%	CSc1sc(C(=O)Nc2ccc(F)cc2F)c2c1C=CCC2
4.7%	O=C(Nc1ccncc1)c1c(Cl)cccc1Cl
0.3%	O=C(NCCCN1CCOCC1)c1ccc(Br)cc1
-5.7%	COC(=O)c1sc2nc(-c3ccccc3)nc(N3CCN(C)CC3)c2c1C

Going on with the list:
VDR inh	mol
9.5%	CNC(=O)c1c(NC(=O)c2ccc(S(=O)(=O)N3CCCCC3)cc2)sc2c1CCC2
17.6%	COc1ccc(N2CC(NC(=O)COc3ccc4ccccc4c3)CC2=O)cc1OC (stereo not drawn)
1.5%	N#C/C(=C(/O)CN1CCCCC1)c1nc(-c2ccc(Cl)cc2)cs1
-2.6%	NC(=O)N/N=C(/CCCCCC/C(=N\NC(N)=O)c1ccccc1)c1ccccc1
-4.7%	C=CCC(C(=O)Oc1c(C(C)(C)C)cc(C)cc1C(C)(C)C)c1ccccc1 (stereo not drawn)
0.2%	CN(Cc1ccccc1)C(=O)COC(=O)c1ccc(=O)n(Cc2ccccc2)n1
6.1%	O=C(Cn1ncc2c3ccccc3n(Cc3ccccc3F)c2c1=O)N1CCCCCC1
-10.2%	COCCN(Cc1ccccc1)C(=O)C1CCN(S(=O)(=O)c2ccc(OC)c(OC)c2)CC1
-11.6%	Cc1cc(C)c(C#N)c(SCC(=O)NC2CC2)n1
10.2%	O=C(OCc1cc(=O)n2c(n1)sc1ccccc12)c1ccc(O)cc1O

Further entries follow:
VDR inh	mol
8.5%	O=C(CCCn1c(=O)c2cccn2c2cccnc21)Nc1ccccc1Br
-11.6%	COc1ccccc1NC(=O)CSCc1cc(=O)n2c(C)csc2n1
-8.0%	CNc1ncncc1-c1c(C)noc1C
5.0%	Cc1ccc(NC(=O)Nc2c[nH]c(=O)[nH]c2=O)c(Cl)c1
-9.5%	CCOC(=O)C1(Cc2ccccc2)CCCN(S(=O)(=O)N(C)C)C1 (stereo not drawn)
-10.1%	COc1cc(OC)cc(-c2nnc(SCC(=O)N3CCOCC3)o2)c1
4.2%	CCOCCCNc1ncnc2c1cnn2-c1ccc(C)c(C)c1
-3.5%	c1ccc2c3n(nc2c1)CCCO3
17.5%	CC1CCC(NC(=O)c2ccc(N3CCCC3=O)cc2)CC1 (stereo not drawn)
10.9%	CCC(=O)N1CCNC(=O)C1CC(=O)Nc1ccc(C)c(Cl)c1 (stereo not drawn)
15.1%	O=C(Nc1nnc(Cc2ccc([N+](=O)[O-])cc2)s1)c1ccc2c(c1)OCO2
50.1µM*	CN[C@@H]1[C@H](O[C@@H]2O[C@H](C)[C@@](O)(CO)[C@H]2O[C@H]2[C@H](O)[C@H](O)[C@H](N=C(N)N)[C@@H](O)[C@@H]2N=C(N)N)O[C@@H](CO)[C@H](O)[C@H]1O
-9.1%	O=C(NCCc1ccccc1)c1ccc(NC2=NC3CS(=O)(=O)CC3S2)cc1 (stereo not drawn)
